RanGTP-Impb inh = inhibitors of RanGTP-importin-beta interaction, primary screen, biochemical, FRET, CFP-Ran, YFP-importin-beta, homogeneous. cell-free CFP-Ran/YFP-importin-beta FRET ratio. 1.1% of 300,000 active. inhibition, % (test concentration not listed);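 active = most replicates above 15%; inconclusive = exactly half above 15%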;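 note: 0% = DMSO wells and 100% = Ran loaded with GDP instead of GTP; wells of about 40 µL received 100 nL stock; the first replicate is given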
ALR inh = inhibitors of human sulfhydryl oxidase ALR; purified ALR, DTT oxidation, H2O2 HRP-luminol luminescence; inhibition, % (concentration not given with the values); 3.8% of 290,000 active;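 active = mean and each replicate at 75% or more; inconclusive = only one of the two met; inactive = neither met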;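 note: stock transfer was 7.5 nL into about 7.5 µL; 0% = neutral wells and 100% = wells with inactivated enzyme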
Target sequence (P55789 whole entry, looked up): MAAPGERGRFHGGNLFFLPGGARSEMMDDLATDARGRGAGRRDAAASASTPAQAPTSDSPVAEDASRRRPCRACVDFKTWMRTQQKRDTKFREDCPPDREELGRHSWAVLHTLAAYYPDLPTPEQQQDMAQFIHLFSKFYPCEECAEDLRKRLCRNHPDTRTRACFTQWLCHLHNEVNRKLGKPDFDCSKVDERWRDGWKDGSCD
Calb FLC = C. albicans growth modulation with fluconazole | C. albicans CaCi-2 (fluconazole-resistant clinical isolate) + fluconazole, Alamar Blue growth, 48 h | growth inhibition, % (no concentration beside the values) | 0.57% of 300,000 active;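 active = most replicates above 75%; inconclusive = exactly half above 75%; inactive = most below 75%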;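 note: all wells also contain fluconazole at 8 µg/ml as a sub-toxic cotreatment; 0% = median of DMSO wells and 100% = median of geldanamycin control wells; wells of about 8 µL received 7.5 nL stock; the first replicate is given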
Beta apoptosis = blocks beta cell apoptosis; INS-1E cytokine-induced death, ATP luminescence, 48 h; percent of positive-control rescue, neutral wells zero; protection from apoptosis, % (no concentration beside the values); 0.8% of 300,000 active;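 active = all replicates at 75% or more, or half of them and the mean; inconclusive = half reach 75% but not the mean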;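 note: 0% = cytokine-treated negative control wells and 100% = positive control rescue; higher means more ATP so stronger rescue from cytokine killing; wells of about 40 µL received 100 nL stock; the first replicate is given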
FGF22 binding = binders of recombinant human FGF22 by thermal shift. 1.5% of 340,000 active. SYPRO orange fluorescence; percent of sucrose octasulfate shift, DMSO zero. calls only at 9.99 µM. Q9HCT0;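 active = melting point raised past a set limit in the mean and every replicate; inconclusive = no clear call; three in four hits are not shown here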
Target sequence (Q9HCT0 whole entry, looked up): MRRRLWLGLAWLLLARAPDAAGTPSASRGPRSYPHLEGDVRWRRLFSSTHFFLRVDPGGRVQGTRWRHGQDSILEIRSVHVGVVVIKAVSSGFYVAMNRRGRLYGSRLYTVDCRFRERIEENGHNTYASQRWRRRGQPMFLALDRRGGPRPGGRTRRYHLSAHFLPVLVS
rRNA inh HTS = selective bacterial rRNA inhibition in E. coli; E. coli WT GFP vs humanized-ribosome RFP mutants, fluorescence, 24 h; hits give low values; DMSO median 0, no signal -100; 1.6% of 350,000 active; AID 720706; GFP signal change (wild-type ribosome), % (test concentration not listed);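 active = significant combined selectivity score with lowered wild-type GFP, culture density cut under 30%, mutant RFP and density less affected; inactive = any of these conditions unmet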; note: one replicate is shown; some compounds called inactive have numbers as strong as hits
T cruzi repl = T. cruzi replication inhibition. T. cruzi beta-gal in NIH3T3, luminescence, 90 h. inhibition, % (concentration not given with the values). 1.4% of 300,000 active. AID 1885;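 active = mean inhibition across valid replicates above about 55%, limit read from the data; inconclusive = mean below that limit but half or more replicates reach it; inactive = mean below it, under half of replicates reach it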;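 note: signal also drops with host cell toxicity which is not excluded here; 0% = plate median of DMSO wells and 100% = zero luminescence signal; higher percent means less beta-gal luminescence so fewer parasites; stock transfer was 50 nL into about 50 µL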
MLL AF4-AF9 inh = blocks AF4 peptide binding to human AF9. AlphaScreen, biotin-AF4 peptide binding to FLAG-AF9. inhibition, % at 10 µM. 0.47% of 350,000 active. AID 651704;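 active = every replicate reaching a set inhibition limit, whatever the replicate mean, cut at about 25% in these data; inconclusive = mean inhibition reaches that limit but some replicates miss it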;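 note: 0% = plate neutral control median and 100% = total signal loss; the record names both 10 and 1 µM as test concentration; the first replicate is given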
Target sequence (P42568 whole entry, looked up): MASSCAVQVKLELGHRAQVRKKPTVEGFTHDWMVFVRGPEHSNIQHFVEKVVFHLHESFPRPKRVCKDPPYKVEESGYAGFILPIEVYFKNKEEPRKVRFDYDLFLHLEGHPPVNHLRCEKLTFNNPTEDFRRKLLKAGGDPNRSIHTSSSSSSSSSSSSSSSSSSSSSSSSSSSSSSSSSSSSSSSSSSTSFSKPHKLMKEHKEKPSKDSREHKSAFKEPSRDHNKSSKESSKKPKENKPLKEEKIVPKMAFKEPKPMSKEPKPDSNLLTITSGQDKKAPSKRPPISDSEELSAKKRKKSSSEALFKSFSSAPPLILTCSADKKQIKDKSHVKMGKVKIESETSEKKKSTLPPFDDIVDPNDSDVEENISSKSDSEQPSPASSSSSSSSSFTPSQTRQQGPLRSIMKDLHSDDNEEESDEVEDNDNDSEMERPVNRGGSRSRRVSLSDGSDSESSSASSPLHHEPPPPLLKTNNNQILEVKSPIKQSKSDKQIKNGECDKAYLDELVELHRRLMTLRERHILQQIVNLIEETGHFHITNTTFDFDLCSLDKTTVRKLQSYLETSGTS
rRNA inh HTS OD600 = second read-out of rRNA inh HTS, no call of its own (marks repeat the call); OD600 change, %; measured here: OD600 growth;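 optical density of the mix in the first replicate; 0 = DMSO median and -100 = no signal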
rRNA inh HTS RFP = also measured in rRNA inh HTS; calls as there; RFP signal change, %; measured here: RFP humanized mutant strains;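 first replicate; 0 = DMSO median and -100 = no signal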
* marks the source's active call; other numbers are inactive results; i = inactive; ? = inconclusive; . = no result given. These rows are one share of the data (hit frequency here may not be typical).

The opening 2 records as a preview:
Molecule	rRNA inh HTS	rRNA inh HTS RFP	MLL AF4-AF9 inh	Calb FLC	T cruzi repl	rRNA inh HTS OD600	ALR inh	FGF22 binding	RanGTP-Impb inh	Beta apoptosis
N#Cc1cccc(NC(=O)CSc2ccc3c4c(cccc24)C(=O)c2ccccc2-3)c1	.	.	.	1	1	.	4	.	-81	-9
Cc1ccc(S(=O)(=O)NCC(=O)OCc2ccccc2Br)cc1	-56	-19	-1.5	4	-18	-77	-4	i	-1.2	-4

The listing, repeating the preview:
Molecule	rRNA inh HTS	rRNA inh HTS RFP	MLL AF4-AF9 inh	Calb FLC	T cruzi repl	rRNA inh HTS OD600	ALR inh	FGF22 binding	RanGTP-Impb inh	Beta apoptosis
N#Cc1cccc(NC(=O)CSc2ccc3c4c(cccc24)C(=O)c2ccccc2-3)c1	.	.	.	1	1	.	4	.	-81	-9
Cc1ccc(S(=O)(=O)NCC(=O)OCc2ccccc2Br)cc1	-56	-19	-1.5	4	-18	-77	-4	i	-1.2	-4
Cc1noc(C)c1COc1ccccc1C(=O)NCc1ccccc1Cl	-21	-2.6	-1.0	9	-1	-20	-21	i	0.1	-3
Cc1ccccc1NS(=O)(=O)c1nnc(NC(=O)c2ccc(Cl)cc2)s1	3	0.5	-0.9	2	-5	10	.	i	?	1
Cc1ccc(CCNC(=O)c2ccc(CS(=O)(=O)Cc3ccccc3F)o2)cc1	.	.	.	4	-3	.	18	.	-3.6	0
COc1ccccc1NS(=O)(=O)c1cc(NC(=O)c2ccc(Cl)nc2)ccc1Cl	.	.	.	23	3	.	.	.	7.6	7
Cc1[nH]c(C)c(S(=O)(=O)NCc2ccc(OC(C)C)cc2)c1C(=O)N1CCCC1	13	1.4	1.1	-1	4	3	-6	i	4.4	-3
Cc1ccccc1NC(=O)CS(=O)(=O)c1cn(CC(=O)N2CCOCC2)c2ccccc12	13	7.2	7.6	2	-5	8	.	i	-2.7	-5
C=CCC(=O)NC1CC(C)(C)Cc2c1cnn2-c1ccccc1C (stereo not drawn)	-3	4.6	2.4	2	-1	9	-8	i	-0.6	-3
CCn1c(=O)c2c3c(sc2n2cnnc12)CCC3	.	.	.	4	-3	.	-4	.	4.6	-4
COc1ccc(CCNC(=O)CN2CCN(Cc3ccc(F)cc3)C2=O)cc1OC	1	-0.1	1.1	-2	-1	4	-10	i	6.4	-1
O=C(CN1C(=O)NC2(CCCC2)C1=O)OCc1ccccc1	5	0.7	1.4	.	.	8	.	i	.	-3
COc1ccccc1Oc1ccc(S(=O)(=O)N2CCN(C)CC2)cc1	-7	-0.8	0.8	3	-8	-3	.	i	4.7	4
CCn1c(N2CCN(C(=O)c3ccco3)CC2)nc2ccccc21	6	2.8	3.1	-6	-4	8	9	i	1.1	-6
Cc1ccc(S(=O)(=O)Nc2nc(C)cc(NN)n2)cc1	5	3.8	-1.2	7	3	5	2	i	3.2	-5
C=CCNC(=O)C1CCN(S(=O)(=O)CC)CC1	.	.	.	-1	-8	.	-1	.	5.8	6
Cc1nn(Cc2ccccc2)c(C)c1C(=O)NCCN1C(=O)S/C(=C\c2ccccc2)C1=O	18	1.0	1.4	-2	2	1	-7	.	0.5	-16
COC(=O)c1ccccc1NCC(=O)c1ccc(OC)cc1	4	0.4	-3.0	5	-20	8	4	i	3.0	-5
Cc1ccc(C(=O)N2C3=C(CCCC3)C(=O)NC23CCCCC3)cc1	13	12	-0.6	-7	6	19	.	i	-3.3	-3
CC(O)c1nc2ccccc2n1CC(=O)N1CCN(c2ccccc2)CC1 (stereo not drawn)	8	0.0	0.5	-5	-17	10	56	i	0.8	0
Cc1cc(Cl)c2oc(C(=O)NCCN3CCOC3=O)c(C)c2c1	-7	0.6	-2.3	14	-3	-7	0	i	5.3	-8
CC1CC(NC2=NCCS2)CC(C)(C)C1 (stereo not drawn)	6	2.8	2.9	-3	.	-5	-5	i	1.1	2
O=C(CSc1ncn[nH]1)NC1CC2CCC1C2 (stereo not drawn)	.	.	.	-9	-8	.	-10	.	?	0
CC[N+](CC)(CC)C/C=C/CN1CCCCC1	10	-7.2	0.0	8	-7	11	6	i	1.0	-6
CC1(C)NC(C)(C)/C(=C\c2cccs2)C(=O)C1=O	4	-0.9	-3.3	-10	2	9	-2	i	6.7	-11
Cc1ccc(C(=O)OC(C)C(=O)Nc2ccc(S(N)(=O)=O)cc2)cc1S(=O)(=O)N1CCOCC1 (stereo not drawn)	1	-0.6	1.9	-9	1	4	.	i	?	-6
O=C(N/N=C/c1ccc(O)c(Br)c1)c1cc2c(ccc3ccccc32)o1	4	2.6	-4.4	-5	.	10	-10	i	.	6
COCCn1nnnc1C(c1ccccc1)N1CCN(Cc2ccc3c(c2)OCO3)CC1 (stereo not drawn)	.	.	.	-5	17	.	3	.	1.7	-4
CCCCCN(C(=O)CCC(=O)OCCOc1ccccc1)c1c(N)n(CCCC)c(=O)[nH]c1=O	-4	-3.6	2.7	2	4	-7	-1	i	0.0	-11
CCc1ccc2[nH]c(O)c(N=NC3=NC(=O)CS3)c2c1	-5	0.1	-59	-7	-6	-12	4	i	0.1	-4
Cc1cc(C)c(OCC(=O)OCC(=O)NC2CCCCCCC2)c(C)c1	8	0.4	-5.2	1	-7	6	1	i	-2.4	-5
O=C(Oc1ccc2ccc(=O)oc2c1)c1ccccc1	5	0.2	2.5	-3	-3	11	3	i	9.9	-8
Cn1c(N)c(C(=O)COC(=O)c2cccc(S(=O)(=O)NCc3ccccc3)c2)c(=O)n(C)c1=O	-50	-5.8	0.8	.	.	-77	-1	i	.	5
C#CCOCCOCCOCCNc1nc(N2CCN(C(=O)C([C@@H](C)CC)n3cc(C(N)Cc4ccc(O)cc4)nn3)CC2)nc(N2CCN(C(=O)[C@H](CCC(=O)O)n3cc(C(N)CC(C)C)nn3)CC2)n1 (stereo partly drawn)	10	-0.3	2.6	2	-10	9	8	i	-3.9	1
Cc1cc(CN2C(=O)c3ccccc3C2=O)cc(N2CCOCC2)c1	-13	2.9	12	16	-10	-2	18	i	-2.9	-2
CCOC(=O)CSC1=N/C(=C\c2ccc(OC)c(OC)c2)C(=O)N1C	-1	-5.6	3.5	15	4	18	39	i	5.9	0
CC(=O)C(C)n1cnc2scc(-c3ccc(C)cc3)c2c1=O (stereo not drawn)	-5	-0.9	-0.1	39	-9	-9	-7	i	4.2	-5
Cc1ccc(C(=O)OCC(=O)NCCc2ccccc2)cc1C	-17	-4.1	-0.5	.	.	-24	-2	i	.	-7
C=CCn1c(COc2ccccc2F)nnc1SCC(=O)NC(=O)NCc1ccco1	.	.	.	-7	3	.	4	.	-2.6	1
CCOC(=O)c1c(NC(=O)CSc2nnc(-c3ccc(OC)cc3)o2)sc2c1CCC2	.	.	.	.	15	.	0	.	-3.9	-7
CC(C)NC(=O)CSc1nnc(-c2ccc(F)cc2)c2ccccc12	-5	-8.1	-3.2	4	3	6	-20	i	1.1	-4
COc1ccc(/C=N/NC(=O)Cc2n[nH]c(=O)[nH]c2=O)cc1	-53	-30	-4.5	-1	5	-79	.	i	2.7	-6
O=C(COC(=O)C1(c2cccc(F)c2)CCCC1)NCc1cccs1	-38	-4.3	-4.3	20	-14	-54	21	i	-0.6	-6
C=C1CCN(Cc2ccccc2)S(=O)(=O)c2ccccc21	-18	-7.7	2.4	-5	-7	-26	5	i	-1.8	2
CCOC(=O)/C(=C/C=C/c1ccccc1)NC(=O)c1ccccc1	-24	-6.4	6.0	-9	7	-20	-2	i	-3.6	8
Cc1ccc(S(=O)(=O)NCCC(=O)NNC(=O)c2ccccc2O)cc1C	-11	0.4	-17	-4	-13	-4	3	i	1.6	-2
CCOC(=O)c1cc(NC(=O)c2ccc(C)cc2)c(=O)oc1C(F)(F)F	19	2.4	-2.6	-9	-12	14	34	i	-1.5	-2
CCc1cccc2c(=O)c(C(=O)NCCCOC)c[nH]c12	8	6.4	0.5	3	-5	-2	-7	.	1.5	-1
Cc1c(NC(=O)c2ccc(F)c(S(=O)(=O)N3CCOCC3)c2)c(=O)n(-c2ccccc2)n1C	.	.	.	-4	-29	.	-1	.	6.8	-2
CC1(C)CC(=O)C(CO)=C(c2cccc3ccccc23)C1=O	1	-0.6	0.4	.	.	-2	-11	i	.	0
CCCN1CCN(C(=O)c2ccc3nc(CC)c(CC)nc3c2)CC1	7	-0.2	-0.7	-4	-10	12	-3	i	1.0	-8
C/C(=N\Nc1ncc(Cl)cc1Cl)c1ccc(S(=O)(=O)NCc2ccco2)cc1	.	.	.	11	8	.	-4	.	-0.4	-6
COC(=O)c1ccc(/C=C/c2c(-c3ccc(OC)cc3)oc3ccccc23)cc1	9	-0.9	-41	13	6	-3	2	i	4.3	-1
Oc1cccnc1SCc1ccccc1	1	-8.7	-0.2	-7	-8	-8	41	i	-3.0	-1
CC(C)(C)c1ccc(C(CC(=O)O)NC(=O)Cc2ccc(F)cc2)cc1 (stereo not drawn)	.	.	.	-9	4	.	3	.	0.0	-8
CCn1cnc2sc(C(=O)Oc3cccc(C)c3)c(C)c2c1=O	20	1.2	-2.1	21	2	5	47	i	6.6	1
CCc1nc(SCC(=O)c2ccc(C)c(C)c2)n[nH]1	.	.	.	16	-11	.	93*	.	7.0	1
